# gsp ag: activates gsp, the McCune-Albright syndrome mutation; 340,000 tested, 0.13% active; Potency, µM (top dose mostly 76.9 µM), for inactives: top-dose activation (cAMP increase), usual class: activators; AID 624287; gsp mutant cells, cAMP HTRF, 30 min; control for the full effect not named in the record; active = well fitted activation curve with a large enough effect; inconclusive = small, poorly fitted or top-dose-only effect, or another doubt; inactive = no such curve, though single readings can be large or run the other way; cell line not stated here;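 note: phosphodiesterase inhibitor Ro 20-1724 added with compounds to block cAMP breakdown; potency is the fitted concentration of half-maximal effect; nearly all actives have a fitted effect of over 60% in size; about a fifth of the inactives were tested at one dose only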
#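 Cells in DMEM/10% FBS with G418 were pretreated with compounds in DMSO plus […] (300 uM stock) for 30 min at 37C. cAMP was measured by HTRF (cAMP-d2 plus anti-cAMP antibody-K) after 30 min at room temperature.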
# TRPV1 potentiator: enhances activation of the human vanilloid receptor TRPV1. TRPV1-expressing cells, Fluo-8 calcium influx, capsaicin EC20 potentiation; host cell line not named in the record; control for the full effect not named in the record. potentiation, % at 8.33 µM. 320,000 tested, 0.02% active. AID 540277; active means potentiation above 80%; inconclusive means 30% to 80%; inactive means below 30%; note: 0% is about no effect
#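 Cells expressing TRPV1 were dye-loaded with Fluo-8 and read kinetically: 10 s baseline, 3 min after compound (agonist portion), then 2 min after EC20 capsaicin (allosteric enhancer portion). Calcium-bound dye fluorescence at 480/520 nm.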
# ClpP mod: qHTS Assay for Activators of ClpP; purified B. subtilis ClpP, FRET peptide cleavage, 20 min; 340,000 tested, 1.9% active; ATP-dependent Clp protease proteolytic subunit (Bacillus subtilis (strain 168)), P80244; Potency, µM (doses to about 57.5 µM), for inactives: at the highest dose activity change, negative = active; active = well fitted falling curve with a large enough effect; inconclusive = small, poorly fitted or top-dose-only effect; inactive = no such curve, though single readings can be large or run the other way; note: potency is the fitted concentration of half-maximal effect; the source files actives as falling curves though it sought activators and does not explain the sign; nearly all actives have a fitted effect of over 65% in size; many hits overshoot -100%
# Target sequence (P80244 whole entry, looked up): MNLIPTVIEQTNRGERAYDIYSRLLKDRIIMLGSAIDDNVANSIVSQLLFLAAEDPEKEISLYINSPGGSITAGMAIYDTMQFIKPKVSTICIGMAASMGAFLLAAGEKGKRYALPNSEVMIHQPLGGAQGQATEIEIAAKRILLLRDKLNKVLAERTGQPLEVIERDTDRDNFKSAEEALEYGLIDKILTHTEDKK
#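 Purified B. subtilis ClpP, 10 microg/mL final in Tris/HCl pH8 with KCl, BSA, glycerol and Tween-20, cleaved an Abz/nitrotyrosine-quenched decapeptide. Fluorescence (ex 320, em 430) was read at 0 and 20 min at room temperature. Delta was normalized to 5.8 microM ADEP and DMSO/no-enzyme controls.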
# TRPML1 blocker: inhibitors of human TRPML1 channel; AID 624415; activity change, negative = inhibition, % (no concentration beside the values); Q9GZU1; 390,000 tested, 0.02% active; TRPML1-inducible cells, Ca2+ dye fluorescence, FDSS; active compounds read low; inhibition of EC80 agonist-evoked calcium signal; in the data active means activity change below about -50%; inconclusive means about -30% to -50%; inactive means above about -30%;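 note: stimulus is agonist 54-4 at its EC80 concentration; % is set by controls: 0 for no effect and ±100 for the full control effect; compound concentration not given in the record; the text of the record puts the active cut at -80%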
# Target sequence (Q9GZU1 whole entry, looked up): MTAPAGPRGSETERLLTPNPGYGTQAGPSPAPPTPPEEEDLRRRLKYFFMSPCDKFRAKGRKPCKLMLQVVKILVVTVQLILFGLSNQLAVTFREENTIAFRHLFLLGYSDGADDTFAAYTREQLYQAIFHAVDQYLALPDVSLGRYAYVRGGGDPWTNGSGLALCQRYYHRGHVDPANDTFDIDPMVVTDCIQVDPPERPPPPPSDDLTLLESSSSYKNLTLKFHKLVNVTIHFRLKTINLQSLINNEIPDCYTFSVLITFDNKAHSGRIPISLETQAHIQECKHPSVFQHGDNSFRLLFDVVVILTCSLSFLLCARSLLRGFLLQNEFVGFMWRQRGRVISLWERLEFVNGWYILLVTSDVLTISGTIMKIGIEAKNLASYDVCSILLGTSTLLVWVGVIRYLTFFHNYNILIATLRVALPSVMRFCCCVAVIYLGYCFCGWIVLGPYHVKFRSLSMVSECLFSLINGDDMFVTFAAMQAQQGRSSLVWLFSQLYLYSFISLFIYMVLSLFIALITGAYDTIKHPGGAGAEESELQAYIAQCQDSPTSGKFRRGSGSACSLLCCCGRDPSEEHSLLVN
#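 Calcium fluorescence in TRPML1-DL cells induced overnight with Tet: a 110 s read after compound pin addition, then a 110 s antagonist read after challenge with 54-4 at 4 uM final (EC80).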
# gsp antag: gsp mutant antagonism; 340,000 tested, 0.4% active; AID 624288; gsp-mutant cells, cAMP HTRF, 30 min; control for the full effect not named in the record; Potency, µM (series often up to 76.9 µM), without a hit: top-dose activity change, negative = inhibition, most hits filed as inhibitors; active = falling curve of any shape with a large fitted effect; inconclusive = falling curve, mostly with a smaller effect; inactive = flat or rising curve; cell line not stated here;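 note: intracellular cAMP measured with PDE inhibitor Ro 20-1724 present during compound exposure; potency is the fitted concentration of half-maximal effect; % is set by controls: 0 for no effect and ±100 for the full control effect; nearly all actives have a fitted effect of over 65% in size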
#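 HTRF cAMP read-out (cAMP-d2 plus anti-cAMP antibody-K in lysis buffer, 30 min RT). Before lysis, cells are exposed to compounds with […] for 30 min at 37C in DPBS containing Ca/Mg, BSA and Tween 20.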
# Sfp PPTase inh: blocks B. subtilis Sfp PPTase activity | Q9F4F7 | Biochemical Sfp PPTase activity, qHTS | Potency, µM, for inactives: max response, negative = inhibition, hits mostly inhibitors | 310,000 tested, 3.5% active | AID 1490; active = well fitted inhibition curve with a large enough effect; inconclusive = small, poorly fitted or top-dose-only effect, or another doubt; inactive = no such curve, though single readings can be large or run the other way;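 note: the enzyme is Sfp with the accession as filed and its product quenches rhodamine fluorescence; potency is the fitted concentration of half-maximal effect; 0% = enzyme reaction without inhibitor and -100% = no enzyme wells; top concentration of the series not given in the record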
#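 Sfp 15 nM + cpd, 15 min RT; start w/ rhodamine-CoA 5 uM, BHQ-2-YbbR 12.5 uM (final); 50 mM Hepes pH 7.6, 10 mM MgCl2, 0.01% NP-40, 0.01% BSA; read 525/598 nm at 0 and 30 min.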
# Menin MLL FP FL: menin-MLL binding inhibition, fluorescein peptide. Fluorescence polarization, fluorescein-MLL peptide displacement from menin. FP activity change, % at 61.4 µM. 290,000 tested, under 10 active. AID 1766; inconclusive = falling polarisation curve, or a change in total fluorescence; inactive = total fluorescence flat and polarisation flat or rising; no compound was filed as active; the % refers to the polarisation; negative = inhibition;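 note: % of control where 0% means no effect; inhibitors lower the polarisation; unlabelled MLL peptide was the positive control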
# Starred values were filed as active, the others as inactive; u = inconclusive; x = no result given; & = joins results of further samples; [ ] = dose if it differs, or a comment.
# Order of results: Menin MLL FP FL, Sfp PPTase inh, ClpP mod, TRPML1 blocker, TRPV1 potentiator, gsp antag, gsp ag
O=C(O)C1CC2CCC1CC2 (configuration not stated)
  x, x, 0.3%, 21.0, x, 19.2%, 2.1%
Cc1cc(=O)oc(C)c1C(=O)Nc1cccnc1Cl
  1.0, -6.5%, 0.9%, -2.7, u, -7.4%, u
Cc1ccccc1NC(=O)CSc1nnc(-c2ccccc2)n1-c1ccccc1
  1.0, 14.6%, 0.0%, -7.7, -20.6, 17.5%, 19.4%
N#C/C(=C1\CCCN1)c1ccc2ccccc2n1
  4.5, 4.2%, -0.9%, 7.9, u, -21.7%, -9.0%
CCc1ccc(-c2cc(C)no2)cc1S(=O)(=O)N1CCN(c2ccc(F)cc2)CC1
  -4.1, -2.7%, -13.3%, 84.7, -6.4, 4.9%, -39.0%[inhibitor]
CN(C)Cc1ccccc1Sc1ccc(Br)cc1
  3.9, 22.5%, -8.4%, -11.1, 5.4, -14.2%, 28.6%
CCOC(=O)C1=C(COc2ccccc2)NC(=O)NC1c1ccc(Br)cc1 (configuration not stated)
  -1.2, 8.8%, -4.0%, 18.7, -3.6, -5.2%, 2.7%
COc1cccc(C(=O)C2CN(c3ccccc3)CC2c2ccc(Cl)cc2)c1 (configuration not stated)
  3.2, -8.6%, -6.5%, -1.9, 7.9, 0.7%, -39.1%[inhibitor]
C=CCC1=C/C(=C\c2c(N)n3nc(CC(=O)N4CCCC4)sc3nc2=O)C=C(OC)C1=O
  x, 5.5%, -1.4%, -10.1, -27.8, 2.4%, -25.8%
Cc1ccc(OCC(=O)N2CCC(N3CCCCCC3)CC2)cc1
  -1.9, -4.3%, -0.9%, -3.8, -23.7, 0.5%, u
CN(C)S(=O)(=O)N1CCN(C(=O)c2ccc3c(c2)OCO3)CC1
  1.2, 20.8%, x, 7.0, 14.1, 5.9%, -32.3%[inhibitor]
Cc1cnc(NC(=O)c2ccco2)s1
  -1.0, -1.4%, -3.5%, 1.1, -18.2, 5.1%, -5.7%
CCN(CCn1cccn1)C(=O)CC1C(=O)NCCN1CC1CCCCC1 (configuration not stated)
  -5.5, 17.6%, x, 1.5, -3.9, -4.9%, 12.7%[15.4 µM]
O=C(CCl)Nc1c[nH]c(=O)[nH]c1=O
  1.8, 2.2%, x, 1.0, 4.3, 11.8%, 19.9%[15.4 µM]
O=C(NCc1ccco1)c1ccccc1-c1ccccc1
  1.2, 1.6%, -2.0%, 4.6, 7.0, u, 12.4%
COc1cc(C(=O)OCc2cc(=O)c(O)co2)ccc1OC(F)F
  -3.4, 13.1%, x, 1.8, 3.1, -6.2%, 8.3%
CC(=O)c1ccc(S(=O)(=O)N2Cc3ccccc3CC2C(=O)O)cc1 (configuration not stated)
  4.4, 6.2%, x, -13.1, 4.3, 12.6%, 1.8%[15.4 µM]
CC(C)c1ccc(-c2nc(N3CCCCC3)[nH]c(=O)c2C#N)cc1
  -1.1, 8.6%, 0.0%, -15.4, 4.9, -3.5%, 7.3%
CC(OC(=O)c1cc2sccc2n1C)C(=O)NCc1ccc2c(c1)OCO2 (configuration not stated)
  0.1, -24.3%, -2.7%, 4.5, -9.8, 10.6%, u
CCCn1c2ccccc2c2nnc(SCC(=O)Nc3cc(C)on3)nc21
  -1.2, 7.1%, -6.9%, 4.7, 7.3, -4.3%, -18.9%

# An excerpt of these results, comma-delimited:
SMILES,Menin MLL FP FL,Sfp PPTase inh,ClpP mod,TRPML1 blocker,TRPV1 potentiator,gsp antag,gsp ag
CN(C)S(=O)(=O)N1CCN(C(=O)c2ccc3c(c2)OCO3)CC1,1.2,20.8%,x,7.0,14.1,5.9%,-32.3%[inhibitor]
CCc1ccc(-c2cc(C)no2)cc1S(=O)(=O)N1CCN(c2ccc(F)cc2)CC1,-4.1,-2.7%,-13.3%,84.7,-6.4,4.9%,-39.0%[inhibitor]
O=C(CCl)Nc1c[nH]c(=O)[nH]c1=O,1.8,2.2%,x,1.0,4.3,11.8%,19.9%[15.4 µM]
CCN(CCn1cccn1)C(=O)CC1C(=O)NCCN1CC1CCCCC1 (configuration not stated),-5.5,17.6%,x,1.5,-3.9,-4.9%,12.7%[15.4 µM]

# The results go on.
# Order of results: Menin MLL FP FL, Sfp PPTase inh, ClpP mod, TRPML1 blocker, TRPV1 potentiator, gsp antag, gsp ag
Cc1ccc(S(=O)(=O)N2C[C@@H]3[C@H]4CC[C@H](C4)[C@@H]3[C@@H](C)[C@H]2C#N)cc1
  x, x, 0.6%, -10.5, x, -9.2%, x
COc1cccc(N2CCN(S(=O)(=O)c3ccc(-c4cnc(C5CC5)o4)cc3)CC2)c1
  x, 2.5%, u, -3.7&-1.3, u, -4.0%, 10.8%
CCOC(=O)Cc1csc(NC(=O)CSc2nc(=O)[nH]c3c2CCC3)n1
  x, x, 0.5%, 2.5, 8.4, 5.4%, -3.2%
Cc1ccc(/C(O)=C2\C(=O)C(=O)N(CCCN3CCOCC3)C2c2ccccc2F)cc1 (configuration not stated)
  x, x, -3.3%, 23.0, x, x, 2.4%
O=C(CC1C(=O)NCCN1Cc1ccccc1C(F)(F)F)NCCN1CCCCC1=O (configuration not stated)
  x, 4.4%, -1.0%, -9.9, 21.9, -1.2%, 22.2%
N#CCCN(C(=O)COC(=O)c1cc(=O)[nH]c2ccccc12)c1ccccc1
  x, x, x, 3.6, x, -2.4%, -10.8%
O=S(=O)(NCc1ccccc1)c1ccc2ccccc2c1
  -1.1, 2.4%, -0.1%, -11.3, u, 6.0%, -1.2%
O=C(COC(=O)c1cc(Br)c(Br)s1)NCCC1=CCCCC1
  14.1, u, 1.6%, 13.5, 0.3, 0.2%, -1.6%
O=C1/C(=C/c2ccco2)N=C(N2CCCCC2)N1c1ccccc1
  u, u, -2.4%, -2.1, -4.7, -13.5%, 17.6%[15.4 µM]
C=CCn1c(C)cc(C2=NNC(=NC(C)(C)C)SC2)c1C
  2.6, 56.2µM*, -15.4%, -3.5, 5.0, -4.8%, -17.0%
N#C/C(=C/c1ccc(N2CCCCC2)o1)C(=O)Nc1ccc2ccccc2c1
  u, -15.8%, -1.7%, 1.2, 9.3, -28.9%, 3.2%
CC1(C)CC(=O)c2sc(NC(=O)CN3C(=O)CCC3=O)nc2C1
  -2.5, 0.7%, u, 12.4, 9.0, 3.7%, 4.0%
COc1ccc(C(=O)C2CCN(C(=O)Nc3ccccc3C)CC2)cc1
  -0.8, 2.8%, 0.5%, -11.2, -6.9, -2.4%, 8.2%[15.4 µM]
C#CCOCCOCCOCCNc1nc(N2CCOCC2)nc(N2CCN(C(=O)CCCCCCCCCCNC(=O)Cn3cc(CCCCCN)nn3)CC2)n1
  x, x, -3.2%, -20.6, -25.0, 1.1%, x
O=C(Nc1ccccc1)c1cc(S(=O)(=O)N2CCSCC2)ccc1Cl
  2.1, 0.4%, 1.0%, 1.7, -8.5, 6.8%, -3.4%[15.4 µM]
Cc1ccc(OCC(=O)Nc2ccc3oc(=O)ccc3c2)cc1
  -7.0, -7.8%, x, 2.5, -0.6, -7.1%, -13.8%
Cc1ccc2c(c1)S/C(=C\c1cccc[n+]1C)N2CCO
  30.1[activator], u, 0.7%, 5.4, -1.6, -12.5%, -14.4%
CNc1nnc(Sc2ncccc2[N+](=O)[O-])s1
  2.4, -18.4%, x, -1.3, -1.3, 9.7%, 3.6%[15.4 µM]
COC(=O)c1c(NC(=O)CN2CCN(c3ccccc3)CC2)c2c(C)cccc2n1C
  3.9, -0.2%, -19.6%, 5.8, 9.2, -3.9%, -2.4%
CC(=O)NS(=O)(=O)c1ccc(NC(=O)c2cccc(S(=O)(=O)N3CCc4ccccc43)c2)cc1
  -3.7, 19.8%, 0.2%, 1.2, -8.1, 5.7%, 0.8%[15.4 µM]
CCn1cc(S(=O)(=O)N2CCc3ccccc3C2)cn1
  x, 19.2%, -3.7%, -12.3, -2.8, 7.9%, u
Cc1ccc(CNC(=O)CCCC(=O)O)cc1
  -0.2, 14.8%, 0.3%, -2.8, 4.0, 11.8%, 26.7%
Cc1ccccc1NC(=O)COC(=O)c1c(C)nn(-c2ccccc2)c1C
  x, x, 0.6%, 7.5, x, x, -25.1%
O=C(NNC(=O)c1cccc2ccccc12)c1ccc(-c2ccccc2)cc1
  -0.6, -9.6%, u, -1.7, 0.1, 1.3%, -3.8%
S=c1[nH]nc(COc2ccccc2)n1/N=C/c1c(Cl)cccc1Cl
  -6.2, -14.5%, 1.3%, 27.4, -3.8, -8.1%, -3.7%
O=C(Nc1cccnc1)c1cccs1
  -0.1, 14.5%, 1.5%, 14.8, -13.2, 6.0%, -2.9%
Cc1ccccc1C(=O)NNC(=O)c1cccn1C
  x, x, x, -13.7, -18.9, 7.7%, -7.0%[15.4 µM]
COc1ccc(C(c2nnnn2C(C)(C)C)N2CCN(C)CC2)cc1OC (configuration not stated)
  -4.0, 4.7%, -1.9%, 2.9, 0.7, 5.8%, 18.2%
CCNCCNc1ccc(Cl)cc1[N+](=O)[O-]
  x, x, 0.6%, -1.5, x, 7.3%, 0.6%
Cc1ccc(NC(=O)c2ccc(Cl)nc2)cc1S(=O)(=O)N1CCOCC1
  x, x, 1.2%, -0.7, x, -9.4%, -3.8%[15.4 µM]
COc1ccc(CCN(C)Cc2ccc(C(=O)Nc3ccccc3)cc2)cc1OC
  x, -4.6%, -2.5%, 11.6, 12.0, -8.7%, -41.1%[inhibitor]
CCc1c(C)nc(SCCOc2ccc(OC(C)C)cc2)[nH]c1=O
  1.3, 13.7%, -0.9%, 13.4, -0.2, -17.4%, -3.0%[15.4 µM]
O=C(NC1CCCCCC1)c1nnc(Cc2ccc(Cl)cc2)o1
  -1.1, 12.9%, 0.8%, 0.2, 10.2, -0.1%, 25.8%
COCCCNC(=O)c1cc(S(=O)(=O)N2CCOCC2)ccc1SCc1cccc(OC)c1OC
  -1.2, 50.1µM*, x, -12.0, -4.5, 0.0%, -10.1%[15.4 µM]
COc1ccccc1N(Cc1ccccc1)S(=O)(=O)c1cccc(C(=O)NCC2CCCO2)c1 (configuration not stated)
  x, x, -0.5%, -7.9, -22.6, u, -15.4%

# From PubChem BioAssay
